Assay outcomes (PubChem)
CtBP-E1A blk: qHTS Assay for Inhibitors of the CtBP/E1A Interaction; CtBP / adenovirus E1A interaction (AlphaScreen); AlphaScreen GST-E1A/His-CtBP binding, 1536-well; stronger effect = lower value; control for the full effect not named in the record; activity change, % (concentration not given with the values); hit rate 0.49% among 340,000; AID 651724, 2012; in the data active means activity change below about -65%; inconclusive means about -30% to -65%; inactive means above about -30%; also: % is scaled to controls: 0 for no effect and ±100 for the full control effect
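AlphaScreen with 125 nM GST-E1A and 125 nM His-CtBP (5X stocks) in Tris pH 8.0, 300 mM NaCl, BSA, Tween 20, TCEP. Compounds preincubated 2 h at 37 deg C, then glutathione donor/nickel acceptor beads added for 1 h at 37 deg C in dark.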
gsp ag: qHTS for Agonist of gsp, the Etiologic Mutation Responsible for Fibrous Dysplasia/McCune-Albright Syndrome: qHTS; gsp mutant cells, cAMP HTRF, 30 min; control for the full effect not named in the record; Potency, µM (doses to about 76.9 µM), inactives show at the highest dose activation (cAMP increase), most hits filed as activators; hit rate 0.13% among 340,000; active = well fitted activation curve with a large enough effect; inconclusive = small, poorly fitted or top-dose-only effect, or another doubt; inactive = no such curve, though single readings can be large or run the other way; cell line not stated here;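 also: phosphodiesterase inhibitor Ro 20-1724 added with compounds to block cAMP breakdown; potency is read from the fitted curve at half-maximal effect; nearly all actives have a fitted effect of over 60% in size; about a fifth of the inactives were tested at one dose only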
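Cells stably selected in G418 were plated at 2000/well, grown 16-24 hr, then given compounds in DMSO with the PDE inhibitor […] (300 uM solution added) for 30 min at 37C; cAMP was read by HTRF.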
gsp antag: qHTS for Antagonists of gsp, the Etiologic Mutation Responsible for Fibrous Dysplasia/McCune-Albright Syndrome: qHTS; gsp-mutant cells, cAMP HTRF, 30 min; control for the full effect not named in the record; Potency, µM (highest dose often 76.9 µM), without a hit: at the top dose activity change, negative = inhibition, most hits filed as inhibitors; hit rate 0.4% among 340,000; active = falling curve of any shape with a large fitted effect; inconclusive = falling curve, mostly with a smaller effect; inactive = flat or rising curve; cell line not stated here;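 also: intracellular cAMP measured with PDE inhibitor Ro 20-1724 present during compound exposure; potency is read from the fitted curve at half-maximal effect; % is scaled to controls: 0 for no effect and ±100 for the full control effect; nearly all actives have a fitted effect of over 65% in size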
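HTRF cAMP read-out (cAMP-d2 plus anti-cAMP antibody-K in lysis buffer, 30 min RT). Before lysis, cells are exposed to compounds with […] for 30 min at 37C in DPBS containing Ca/Mg, BSA and Tween 20.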
D2 ag: Beta-Arrestin HTS for Positive Allosteric Modulators of the Human D2 Dopamine Receptor: Agonists | activation, % (no concentration beside the values) | DiscoveRx PathHunter D2 beta-arrestin, luminescence, 90 min; 100% = 57 uM dopamine signal | hit rate 0.084% among 360,000 | AID 624465, 2012; in the data active = activation above about 40%; inconclusive = about 15% to 40%; inactive = below about 15%; also: compound concentration not given in the record; the text of the record calls up to 30% inactive
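DiscoveRx PathHunter D2 beta-arrestin cells (2,100/well) attached overnight, then compound-stimulated 90 min at 37 C in HBSS/10 mM HEPES/0.1% Tween-20 buffer; beta-galactosidase complementation read by luminescence after 1 h at ambient temperature. Dopamine 57 uM final (EC100) as control.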
Six1-Eya2 inh: qHTS Assay for Inhibitors of the Six1/Eya2 Interaction | activity change, % (no concentration beside the values) | AlphaScreen GST-Six1/His-Eya2 binding, biochemical; stronger effect = lower value; control for the full effect not named in the record | AID 651725, 2012 | hit rate 0.56% among 360,000 | Homeobox protein SIX1 (Homo sapiens) + Protein phosphatase EYA2 (Homo sapiens), …; in the data active = activity change below about -65%; inconclusive = about -30% to -65%; inactive = above about -30%; also: % is scaled to controls: 0 for no effect and ±100 for the full control effect; compound concentration not given in the record
Target sequence (O00167 whole entry, looked up): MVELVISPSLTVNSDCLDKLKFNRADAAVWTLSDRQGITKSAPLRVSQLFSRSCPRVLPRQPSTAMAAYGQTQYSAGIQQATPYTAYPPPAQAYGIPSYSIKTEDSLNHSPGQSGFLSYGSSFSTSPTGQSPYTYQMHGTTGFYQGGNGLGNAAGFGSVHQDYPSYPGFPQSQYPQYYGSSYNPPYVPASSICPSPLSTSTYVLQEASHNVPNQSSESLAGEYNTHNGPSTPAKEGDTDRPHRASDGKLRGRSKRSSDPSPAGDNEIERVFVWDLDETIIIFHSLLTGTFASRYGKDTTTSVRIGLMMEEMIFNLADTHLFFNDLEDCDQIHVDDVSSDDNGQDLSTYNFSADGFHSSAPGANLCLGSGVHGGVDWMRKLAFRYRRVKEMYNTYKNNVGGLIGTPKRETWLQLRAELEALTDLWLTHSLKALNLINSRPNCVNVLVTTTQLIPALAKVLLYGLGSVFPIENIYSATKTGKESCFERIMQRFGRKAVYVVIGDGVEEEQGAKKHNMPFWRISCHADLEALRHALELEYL
Target sequence (Q15475 whole entry, looked up): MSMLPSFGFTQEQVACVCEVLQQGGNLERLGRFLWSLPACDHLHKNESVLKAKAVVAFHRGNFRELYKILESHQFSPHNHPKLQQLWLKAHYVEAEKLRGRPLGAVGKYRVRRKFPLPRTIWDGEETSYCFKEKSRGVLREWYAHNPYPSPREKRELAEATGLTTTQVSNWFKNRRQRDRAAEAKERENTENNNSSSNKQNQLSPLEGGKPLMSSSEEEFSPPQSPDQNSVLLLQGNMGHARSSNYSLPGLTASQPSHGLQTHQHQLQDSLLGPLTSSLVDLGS
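GST-Six1 + His-Eya2 (5X stock: 250/500 nM); Tris pH 8.0, 300 mM NaCl, 0.05% BSA, 0.02% Tween 20; GSH donor/Ni acceptor beads; 1 h 37 °C dark; AlphaScreen readout.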
D2 potentiator: Beta-Arrestin HTS for Positive Allosteric Modulators of the Human D2 Dopamine Receptor: Potentiators. hit rate 0.23% among 360,000. potentiation, % (concentration not given with the values). D(2) dopamine receptor (Homo sapiens), P14416. DiscoveRx D2 beta-arrestin cells, luminescence, 90 min; 100% = 57 uM dopamine signal; active = potentiation of 50% or more; inconclusive = 30% to 50%; inactive = 30% or less;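 also: compound concentration not given in the record; tested on top of an EC20 dose of dopamine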
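PathHunter D2 cells, attached overnight at 37 deg C, received compound in DMSO plus dopamine at EC20 (50 nM final) for 90 min at 37 deg C. Beta-arrestin recruitment was read as luminescence after 1 h with detection reagent at ambient temperature.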
* marks the source's active call; other numbers are inactive results; ? = inconclusive; . = no result given; [ ] = remark or other dose. Not a hit list; about 1.4% have a hit in one of these screens.

SMILES	CtBP-E1A blk	gsp ag	gsp antag	D2 ag	Six1-Eya2 inh	D2 potentiator
Cc1cc(=O)nc2c3ccccc3n(C(C)C(=O)Nc3c(F)c(F)c(F)c(F)c3F)n12 (stereo not drawn)	3	2%[15.4 µM]	5%	4.5	-2	1
O=c1cc(O)c2sc(Nc3ccc(F)c(Cl)c3)nc2[nH]1	1	-4%[15.4 µM]	3%	-1.9	-7	0
Cc1cccc(NC(=O)c2ncn3c2C(=O)N[C@@H](C)C3)c1	0	32%	.	-3.2	-1	.
CC(=O)N1C(=O)C2(C(C#N)=C(N)Oc3n[nH]c(-c4ccccn4)c32)c2ccccc21 (stereo not drawn)	?	1%	5%	-1.4	-25	3
COc1ccc(OC)c(CCNC(=O)CN2C(=O)CC(C)(C)S(=O)(=O)c3ccccc32)c1	5	6%	5%	1.4	5	-3
O=C(NCc1ccco1)c1ccc(CS(=O)(=O)c2cccc(C(F)(F)F)c2)o1	3	28%	-4%	0.0	-2	-15
CCOc1ccccc1N1Cc2ccccc2C1	-2	-21%	1%	-0.6	-2	9
Cc1ccc2cc(/C=N/NC(=O)[C@H]3C[C@@H]3c3ccccc3)c(Cl)nc2c1	.	0%	-9%	0.2	-5	2
CCc1ccccc1N(CC(=O)NCc1ccco1)C(=O)c1snc(C(N)=O)c1N	-10	1%	12%	-6.2	-4	-17
O=C(O)c1nn(CC(=O)N2CCC(Cc3ccccc3)CC2)c(=O)c2ccccc12	-8	-3%[15.4 µM]	-25%	0.5	-3	1
CC(C)C(NC(=O)c1ccccc1F)C(=O)NCC(c1ccco1)N1CCCCC1 (stereo not drawn)	12	-6%[15.4 µM]	3%	-2.7	-6	-21
Cc1cc2nc(N=C(N)N)nc(C)c2cc1C	.	1%	-22%	-5.0	-12	-9

Three entries from above, reformatted:
Cc1cccc(NC(=O)c2ncn3c2C(=O)N[C@@H](C)C3)c1
- CtBP-E1A blk = 0
- gsp ag = 32%
- gsp antag = .
- D2 ag = -3.2
- Six1-Eya2 inh = -1
- D2 potentiator = .
CC(=O)N1C(=O)C2(C(C#N)=C(N)Oc3n[nH]c(-c4ccccn4)c32)c2ccccc21 (stereo not drawn)
- CtBP-E1A blk = ?
- gsp ag = 1%
- gsp antag = 5%
- D2 ag = -1.4
- Six1-Eya2 inh = -25
- D2 potentiator = 3
COc1ccc(OC)c(CCNC(=O)CN2C(=O)CC(C)(C)S(=O)(=O)c3ccccc32)c1
- CtBP-E1A blk = 5
- gsp ag = 6%
- gsp antag = 5%
- D2 ag = 1.4
- Six1-Eya2 inh = 5
- D2 potentiator = -3

Other records follow:
SMILES	CtBP-E1A blk	gsp ag	gsp antag	D2 ag	Six1-Eya2 inh	D2 potentiator
COc1ccc(C(=O)Nc2cc(Cl)ccc2Cl)c(OC)n1	3	-4%	3%	-2.8	1	-19
Cc1nn(Cc2c(Cl)cccc2Cl)c(C)c1NC(=O)c1cn(-c2ccccc2)nc1-c1ccccc1	1	-1%	-1%	-1.6	5	2
CC(=O)Nc1ccc(NC(=O)CS(=O)(=O)Cc2ccccc2)cc1	8	12%	16%	-2.9	1	3
COC(=O)C1C/C(=N/NS(=O)(=O)c2ccc(C)cc2)CS1 (stereo not drawn)	7	4%	-6%	-4.9	2	-21
CC(Cc1ccccc1)C(=O)NCCO (stereo not drawn)	.	8%	4%	-2.8	6	-14
CS(=O)(=O)N(CC(=O)N1CCOCC1)c1ccc2c3c(cccc13)CC2	7	32%	-16%	-3.7	3	-11
Cc1cc(OCCCC(=O)N2CCCCC2)cc(C)c1Cl	5	7%	-1%	-1.9	14	-13
CC(=O)NS(=O)(=O)c1ccc(NC(=S)NC(=O)C(C)C)cc1	3	?	5%	-3.5	5	-36
c1ccc2c(c1)ncn2Cc1nnc2sc(-c3ccncc3)nn12	-3	?	-3%	-0.2	-3	-4
CCCSc1n[nH]c(NC(C)=O)n1	1	33%	7%	1.0	4	-3
COc1ccc(C2C(CC(=O)O)=C(O)C(=O)N2c2ccccc2)cc1 (stereo not drawn)	2	?	4%	-0.5	0	-6
COc1ccc(C(C)C)cc1S(=O)(=O)Nc1ccc(Cl)cn1	5	-12%	-15%	-0.7	1	0
Cc1cccc(N2CCN(C(c3ccccc3)c3nnnn3C(C)(C)C)CC2)c1C (stereo not drawn)	-1	?	0%	-1.6	0	6
Cc1cc(C)c2c(CC(=O)NCCc3ccccc3)coc2c1	-3	0%	-6%	-2.4	2	-11
Cc1cc(C(=O)N2CCN(Cc3ccc4c(c3)OCO4)CC2)cs1	4	3%	10%	-2.1	-3	-22
C/C(=N\NC(=O)Cc1ccc(F)cc1)c1ccc(F)cc1	1	-4%	-5%	-4.9	-5	-15
CCCCCCCn1c(=N)n(CC(=O)c2ccco2)c2ccccc21	0	6%	-9%	-3.4	-1	-13
CCOc1ccccc1NC(=O)CSc1ccc(-c2sc(C)nc2C)nn1	-21	-5%[15.4 µM]	-17%	-1.4	-25	-8
N=c1c(C(=O)NCCN2CCOCC2)cc2c(=O)n3ccccc3nc2n1Cc1ccc(F)cc1	3	?	-1%	1.3	1	-6
CCN(CC(=O)Nc1c(F)cccc1F)C(=O)c1ccc(N2CCCCC2)c([N+](=O)[O-])c1	0	-5%	-12%	0.3	-8	3
Cc1cccc(OCCNC(=O)c2ccc(Cl)c(S(=O)(=O)NCc3cccnc3)c2)c1	1	1%	6%	2.3	29	-2
COc1cc(C2=NOC(C(=O)N3CCCc4ccccc43)C2)cc(OC)c1OC (stereo not drawn)	-4	-51%[inhibitor]	-6%	0.1	0	-6
Cc1ccc(C2CCN(C(=S)Nc3cccc(C)c3)C2)cc1 (stereo not drawn)	-5	-1%	-8%	-2.7	-10	-12
Cc1[nH]c(C)c(S(=O)(=O)N(Cc2ccccc2)C(C)(C)C)c1C(=O)N1CCCC1	.	18%	-9%	-4.0	0	-4

(listing goes on)
| SMILES | CtBP-E1A blk | gsp ag | gsp antag | D2 ag | Six1-Eya2 inh | D2 potentiator |
| --- | --- | --- | --- | --- | --- | --- |
| Cc1ccc(Nc2nc(C)cc(C)c2C(N)=O)c(C)c1 | . | -11% | -6% | 3.7 | -2 | 12 |
| CCOc1ccc(C(=O)Nc2cccc3ncccc23)cc1Cl | 6 | -4%[15.4 µM] | -5% | 5.2 | -10 | 1 |
| CCOC(=O)c1ccccc1NC(=O)COC(=O)C(Cc1c[nH]c2ccccc12)NC(C)=O (stereo not drawn) | -3 | -15%[15.4 µM] | -6% | -2.8 | -4 | -34 |
| C=CCN(CC=C)CCCOc1ccccc1C(=O)OC | 0 | -35%[inhibitor] | 5% | 1.1 | 0 | -16 |
| CCOC(=O)c1sc(-c2ccccc2)cc1NC(=O)c1ccc(S(=O)(=O)N(CCOC)CCOC)cc1 | -5 | -9% | 0% | 0.7 | 4 | -4 |
| Cn1c(=O)oc2cc(S(=O)(=O)Nc3ccc(F)cc3)ccc21 | 1 | -4% | 2% | -2.2 | -1 | -3 |
| O=C(Nc1ccccn1)C1CCN(C(=O)Nc2ccccc2)CC1 | 8 | -7%[15.4 µM] | 7% | -5.4 | 0 | -3 |
| CCCCNC(=O)c1ccccc1NC(=O)c1ccccc1N(C)S(C)(=O)=O | 3 | -12% | -3% | 0.5 | 1 | -5 |
| NC(=O)CSc1nnc(-c2cccnc2)n1CCc1ccccc1 | 12 | 25% | 6% | -2.9 | -2 | 9 |
| CC(=O)Nc1ccc(C(=O)NNC(=O)c2cccc(C)c2)cc1 | 6 | -2%[15.4 µM] | 7% | 6.8 | 2 | -1 |
| Cc1cc2[nH]c(=O)c(=O)[nH]c2cc1S(=O)(=O)N1CCN(c2ccccc2)CC1 | 18 | 10% | 11% | -0.5 | 10 | 1 |
| CCCCNc1c([N+](=O)[O-])c(=O)n(C)c2ccccc12 | -6 | -44%[inhibitor] | -1% | -1.2 | -14 | -3 |
| COc1cc(S(=O)(=O)Nc2ccc(C)cc2)ccc1N=Cc1c(C)c(C#N)c(=O)n(C)c1O | . | 0%[15.4 µM] | -3% | -1.6 | 3 | -6 |
| COc1ccc(OC)c(-c2cc(C(=O)Nc3ccc(F)cc3F)no2)c1 | 1 | ? | 9% | -5.7 | 4 | -14 |
| Cc1cccc(NC(=O)c2cc([N+](=O)[O-])ccc2NCC2CCCO2)n1 (stereo not drawn) | ? | -5%[15.4 µM] | -17% | -3.6 | -8 | -12 |
| O=C(CSc1ncnc2ccccc12)NCCc1ccccc1 | 7 | ? | 8% | 1.0 | 3 | 4 |
| Cc1nc(=O)c(-c2ccccc2)c(C)n1-c1ccc(Br)cc1 | . | ? | -2% | -4.6 | -23 | -22 |
| O=C(Cn1cc(C(F)(F)F)ccc1=O)NC1CCCC1 | . | -9% | 1% | 0.4 | 0 | 2 |
| Cc1ccc(/C=C2/C(=O)N(c3ccccc3)C(=S)N2C)o1 | -13 | -1% | -24% | -3.0 | -15 | -23 |
| O=C1C2ON(c3ccccc3)C(c3ccncc3)C2C(=O)N1c1ccccc1 (stereo not drawn) | 11 | -40%[inhibitor] | -26% | -1.0 | 0 | -7 |
| CC(C)Cn1c(N)c(C(=O)COC(=O)c2cccc(Cl)c2)c(=O)n(C)c1=O | 3 | 4%[15.4 µM] | 50µM* | 0.8 | -2 | -1 |
